# MARV entry inh = blocks Marburg virus binding to or entry into cells; 1.8% of 300,000 active; Potency, µM (doses to about 37.8 µM), for inactives: at the highest dose activity change, negative = inhibition, hits mostly inhibitors; Marburg virus pseudotyped entry inhibition, cell reporter; control for the full effect not named in the record; about a third of the inactives were read at about 46 µM; AID 540276; active = well fitted inhibition curve with a large enough effect; inconclusive = small, poorly fitted or top-dose-only effect, or effect the other way; inactive = flat fitted curve, though single readings scatter; tested in HEK293 cells; about a fifth of its hits are not listed in these tables; note: % is set by controls: 0 for no effect and ±100 for the full control effect; luciferase read-out
# NS1 function inh = inhibitors of influenza NS1 protein function; Potency, µM (highest dose often 46.1 µM), inactives show at the highest dose activity, positive = more growth; 0.4% of 270,000 active; S. cerevisiae slowed by influenza A NS1, growth recovery by OD600; active means well fitted rising curve with a large enough effect; inconclusive means small, poorly fitted or top-dose-only effect; inactive means no such curve, though single readings can be large or run the other way; note: nearly all actives have a fitted effect of over 50% in size
#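 Recovery from NS1-induced slow growth read by OD600 in budding yeast switched to galactose assay medium (pH 6.0, -URA) at 1:100 dilution. Compound 23 nl per well; the matching strain lacking NS1 serves as control.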
# RE007 growth inh = less growth of the S. pombe RE007 Vpr strain. S. pombe RE007 Vpr strain, BacTiter-Glo ATP luminescence, 24 h; control for the full effect not named in the record. Potency, µM (series often up to 92.2 µM), without a hit: at the top dose activity change, negative = less growth. 0.21% of 360,000 active; active = well fitted falling curve with a large enough effect; inconclusive = small, poorly fitted or top-dose-only effect; inactive = no such curve, though single readings can be large or run the other way;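 note: % is set by controls: 0 for no effect and ±100 for the full control effect; nearly all actives have a fitted effect of over 50% in size; the assay follows cell death caused by Vpr and the record does not say whether a fall means rescue or toxicity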
#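 Fission yeast RE007 carrying one integrated HIV-1 vpr copy, seeded at OD 0.01 in PMG+AL medium with 23 nL pinned compound. Grown 24 h at 30 degrees; viability read by BacTiter-Glo luminescence after 5 min.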
# Cruzain inh Det = inhibitors of Trypanosoma cruzi cruzain with detergent | purified cruzain, Z-FR-AMC fluorescence, 0.01% Triton | Potency, µM, inactives show max response, negative = inhibition, most hits filed as inhibitors | 0.43% of 200,000 active | AID 1478;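 note: plate controls were neutral wells for no effect and buffer without enzyme for full effect; nearly all actives have a fitted effect of over 40% in size; top concentration of the series not given in the record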
# Target sequence (P25779 123-467 limits assumed): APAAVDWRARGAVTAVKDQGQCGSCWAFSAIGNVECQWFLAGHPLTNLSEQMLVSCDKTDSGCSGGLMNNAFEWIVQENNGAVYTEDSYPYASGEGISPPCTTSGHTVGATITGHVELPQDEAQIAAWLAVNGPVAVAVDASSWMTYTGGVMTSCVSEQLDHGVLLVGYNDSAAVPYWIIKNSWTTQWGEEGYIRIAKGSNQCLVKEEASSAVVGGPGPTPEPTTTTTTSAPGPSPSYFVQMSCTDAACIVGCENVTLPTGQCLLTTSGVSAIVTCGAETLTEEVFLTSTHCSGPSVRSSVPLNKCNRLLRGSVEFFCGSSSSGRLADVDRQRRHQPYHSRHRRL
#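 15 min RT preincubation of 1.5 nM cruzain with compound, then 2 uM Z-FR-AMC added; kinetic AMC fluorescence, 60 s delta. Triton X-100 0.01%, pH 5.5.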
# 2A StopGo = lowers the luciferase signal of an FMDV 2A StopGo reporter | human cells with a luciferase reporter of 2A StopGo recoding; control for the full effect not named in the record | Potency, µM (titrated, usually from 57.9 µM), without a hit: at the highest dose signal change, negative = less light | 1.2% of 410,000 active | AID 1159524; active = well fitted falling curve with a large enough effect; inconclusive = small, poorly fitted or top-dose-only effect; inactive = no such curve, though single readings can be large or run the other way; tested in HEK293T cells; note: % is set by controls: 0 for no effect and ±100 for the full control effect; nearly all actives have a fitted effect of over 45% in size; luciferase light after 4 h
# SARS PLpro yeast = SARS-CoV PLP inhibition in yeast. S. cerevisiae expressing SARS-CoV PLpro, growth rescue; control for the full effect not named in the record. Potency, µM (titrated, usually from 32.9 µM), without a hit: at the highest dose activity, positive = growth rescue. 0.19% of 330,000 active; active means well fitted rising curve with a large enough effect; inconclusive means small, poorly fitted or top-dose-only effect; inactive means no such curve, though single readings can be large or run the other way; note: 0% is about no effect; nearly all actives have a fitted effect of over 55% in size; growth read by luminescence after 48 h
# Cruzain inh noDet = inhibitors of Trypanosoma cruzi cruzain without detergent. P25779. purified cruzain, Z-FR-AMC fluorescence, no detergent. Potency, µM, for the others: max response, negative = inhibition, actives largely listed as inhibitors. 2.3% of 200,000 active;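 note: plate controls were enzyme without inhibitor for no effect and buffer without enzyme for full effect; nearly all actives have a fitted effect of over 40% in size; top concentration of the series not given in the record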
#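 Detergent-free condition (0.00005% Triton X-100) in acetate buffer pH 5.5 with DTT. 1.5 nM enzyme and compound were pre-mixed 15 min, then 2 uM Z-FR-AMC substrate added; reaction progress from fluorescence change between first and third reads (60 s).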
# Lassa entry inh = blocks Lassa virus binding to or entry into cells; Lassa virus pseudotype entry inhibition, cell reporter; control for the full effect not named in the record; Potency, µM (series often up to 37.9 µM), inactives show at the top dose activity change, negative = inhibition, usual class: inhibitors; 1.2% of 300,000 active; active means well fitted inhibition curve with a large enough effect; inconclusive means small, poorly fitted or top-dose-only effect, or effect the other way; inactive means flat fitted curve, though single readings scatter; tested in HEK293 cells; note: % is set by controls: 0 for no effect and ±100 for the full control effect; nearly all actives have a fitted effect of over 50% in size; luciferase read-out
# An asterisk follows results filed as active; ? = inconclusive; / = not tested or not shown; [ ] = dose if it differs, or a comment. Unless noted, calls come from the whole dose curve; as a rule, active = well fitted curve in the direction sought with a large enough effect; inconclusive = small, poorly fitted or top-dose-only effect, or another doubt; inactive = no such curve, though single readings can be large; an effect the other way counts as inactive or inconclusive. Potency is the fitted concentration of half-maximal effect.
SMILES,MARV entry inh,NS1 function inh,RE007 growth inh,Cruzain inh Det,2A StopGo,SARS PLpro yeast,Cruzain inh noDet,Lassa entry inh
CN1CCC(OC(=O)C2c3ccccc3Oc3ccccc32)CC1,?,-8.8%,3.3%,2.8%,0.3%,1.0%,5.5%,?
Cc1cccc(C(=O)N(C(=O)c2cccc(C)c2)N(C)C)c1,?,/,2.1%,/,-13.1%,/,/,1.0%[46.1 µM]
Cc1ccc(NC(=O)CCn2c(=O)c3cccn3c3ccccc32)cc1Cl,/,/,/,-6.7%,-16.1%,/,11.0%,?
COc1ccc(OC)c(CN2CCN(CCc3ccccc3)C(CCO)C2)c1 (centres undefined),-19.1%[46.1 µM],1.6%,9.0%,/,-10.2%,1.3%,/,-0.7%
Cc1ccc(NC(=S)NCc2ccco2)c(C)c1,-3.5%[46.1 µM],-0.1%,-2.3%,/,22.8%,10.4%,/,7.9%
O=C(Nc1cc(S(=O)(=O)N2CCCCC2)ccc1N1CCCCC1)C1CC1,/,-7.5%,28.8%,/,-9.6%,-1.4%,/,/
CNS(=O)(=O)c1cccc(C(=O)OCC(=O)Nc2ccccc2F)c1,20.5%[46.1 µM],/,2.1%,/,12.8%,0.4%,/,15.4%
COc1cc(NC(=S)N2CCCCC2C)c(OC)cc1Cl (centres undefined),1.8%,3.9%,-3.1%,/,10.1%,-1.1%,/,4.8%
CCc1cc2c(=O)c(-c3cnn(-c4ccccc4)c3)c(C)oc2cc1OCC(=O)Nc1ccc(F)c(F)c1,0.7%,11.9%,/,-0.7%,-20.9%,-8.4%,25.1µM*,13.4%
CC(=O)c1sc2nc(=O)c(C)nn2c1C,-15.3%,1.4%,-10.7%,-10.3%,/,6.1%,-11.0%,-8.2%
CCOc1ccc(CCNC(=O)CN(C)S(=O)(=O)c2cccs2)cc1OCC,?,/,23.6%,/,0.0%,2.1%,/,0.5%
Cc1c(CCC(=O)N[C@@H](CCCNC(N)=O)C(=O)O)c(=O)oc2cc3oc4c(c3cc12)CCCC4,?,-1.2%,-10.9%,/,-16.7%,0.8%,/,?
CC(C)N(Cc1nc(-c2ccc(Cl)cc2)no1)Cc1nccn1C,?,1.6%,-2.1%,/,-16.0%,-1.5%,/,-16.3%[46.1 µM]
Cc1cccc(NC(=O)C2CCN(S(=O)(=O)c3ccc4c(c3)OCCCO4)CC2)n1,?,/,-2.3%,/,?,1.4%,/,-8.9%
CC(C)CN1C(=O)C(=O)N(CC(=O)N(C)CC(=O)Nc2ccc(Cl)c(C(F)(F)F)c2)C1=O,-1.7%,/,1.9%,/,-24.0%,7.5%,/,/
O=C1OC(/C=C/c2ccc(Cl)cc2)=NC/1=C/c1ccco1,12.4%,11.6%,-10.9%,2.51µM*,-22.0%,13.4%,15.8µM*,11.9%
CCOC(=O)Nc1sc2nc(C)cc(C)c2c1-n1cccc1,?,2.7%,-3.1%,-7.8%,?,4.0%,17.5%,?
COc1ccc(C2C(C(=O)Nc3cccnc3)=C(C)Nc3nc(-c4ccco4)nn32)cc1 (centres undefined),6.2%,-17.8%,13.0%,0.0%,-12.5%,17.8%,2.2%,/
CN1CCN(C(=O)CCc2nnc3ccc(N4CCC5(CC4)OCCO5)nn23)CC1,/,1.8%,-12.9%,/,-2.0%,-1.3%,/,/
Cc1ccc(OCCNC(=O)CCNS(=O)(=O)c2ccc(C)cc2)cc1,-9.8%,/,6.9%,/,18.3%,-3.5%,/,?
Cc1ccc(C)c(N2CCN(c3nc4ccc(C(=O)c5ccccc5)cc4n4cnnc34)CC2)c1,4.5%[46.1 µM],/,/,-0.6%,-17.1%,/,-4.1%,-26.7%[46.1 µM]
CCOC(=O)CNC(=O)C1CCC(CNS(=O)(=O)c2cccc3nsnc23)CC1 (centres undefined),5.5%[46.1 µM],0.2%,13.5%,/,-2.4%,0.0%,/,?
CS(=O)(=O)c1ncc(Cl)c(C(=O)Nc2c(C(=O)Nc3ccccc3)oc3ccccc23)n1,-23.9%[46.1 µM],/,/,-0.6%,28.2µM*,/,-0.2%,-0.4%[46.1 µM]
CC(=O)Oc1cccc(N2C(=O)C3CC=C(Cl)CC3C2=O)c1 (centres undefined),11.6%,-6.2%,3.7%,-1.0%,-1.6%,0.1%,-4.9%,24.4%
O=C1CC(c2ccc(Cl)cc2)Sc2nc(-c3ccc(F)cc3)nn21 (centres undefined),0.2%[46.1 µM],/,/,-4.6%,-19.2%,/,-4.2%,-3.5%[46.1 µM]
COc1ccc(C(c2sc3ncnn3c2O)N2CCN(c3ccccc3F)CC2)cc1OC (centres undefined),-2.3%,4.3%,-15.1%,-2.1%,59.0%[activator],-1.1%,?,/
Cc1ccc(C(=O)COC(=O)C(C)N2C(=O)C3C4CCC(C4)C3C2=O)cc1 (centres undefined),-7.5%,-21.2%,5.5%,/,20.7%,-7.8%,/,-8.8%
COC(=O)c1cc2sccc2n1CC(=O)Nc1ccc(OC)c(OC)c1OC,2.7%,?,-4.3%,0.4%,/,0.8%,4.2%,2.0%
CC1CCN(C(=O)c2ccc(CSc3nc4ccncc4n3Cc3ccc(F)cc3)cc2)CC1,-29.6%,-21.4%,-17.9%,-4.6%,-18.7%,-16.6%,-5.6%,-26.9%
CC(=O)N1CCN=C1SCc1ccc(C(F)(F)F)cc1,/,0.9%,10.1%,/,-20.2%,0.4%,/,/

# Next section (2 carried over from the part before).
SMILES,MARV entry inh,NS1 function inh,RE007 growth inh,Cruzain inh Det,2A StopGo,SARS PLpro yeast,Cruzain inh noDet,Lassa entry inh
CC1CCN(C(=O)c2ccc(CSc3nc4ccncc4n3Cc3ccc(F)cc3)cc2)CC1,-29.6%,-21.4%,-17.9%,-4.6%,-18.7%,-16.6%,-5.6%,-26.9%
CC(=O)N1CCN=C1SCc1ccc(C(F)(F)F)cc1,/,0.9%,10.1%,/,-20.2%,0.4%,/,/
COc1ccc(OC)c(N2C(N)=NC(N)=NC23CCCC3)c1,?,9.8%,0.3%,3.3%,-12.2%,6.2%,-1.2%,11.5%
O=C(Cc1ccc(Cl)cc1)Nc1ccc2oc(-c3ccncc3)nc2c1,-29.0%[46.1 µM],-10.9%,31.7%,-1.1%,-6.9%,-1.4%,6.0%,-14.2%
Fc1ccccc1N1CCN(c2cnc3ccccc3n2)CC1,?,-71.8%,?,-4.0%,-59.1%,/,-3.7%,?
CCC1(C)Cc2ccccc2-c2c1c(=O)n(Cc1ccccc1)c1nnnn21 (centres undefined),-4.6%,6.5%,15.6%,4.8%,-10.4%,11.5%,?,0.8%
Nc1ccc(-c2c3ccc(=O)cc-3oc3cc(O)ccc23)c(C(=O)O)c1,9.5%,/,-17.3%,/,-23.4%,2.5%,/,21.0%
CC(C)[C@H](NC(=O)N1CCn2c1nc1ccccc12)C(=O)N[C@H](C(=O)O)c1ccccc1,/,12.0%,-0.5%,/,-15.9%,10.3%,/,/
Cc1cc(-c2nnc(SCC(=O)Nc3ccccc3C(F)(F)F)o2)c(C)n1-c1ccccc1,?,8.2%,26.1%,0.9%,?,-0.1%,3.9%,1.5%
Cc1cc(Nc2ccccc2O)c2ccccc2n1,?,-0.3%,-4.4%,/,-13.8%,0.8%,/,-4.8%[46.1 µM]
O=C(c1ccccc1)N(C1=NCCCCS1)c1ccccc1,1.9%,15.9%,6.6%,1.0%,-28.1%,27.2%,12.0%,?
O=C(c1ccc(COc2ccc(Cl)cc2)cc1)N1CCCCC1,?,-58.8%,-24.2%,/,-1.0%,-5.0%,/,-19.7%[46.1 µM]
CC1CCCCN1C(=O)COC(=O)c1cc([N+](=O)[O-])ccc1N (centres undefined),?,/,-7.2%,/,25.1%,1.3%,/,-5.8%
COc1ccc(-n2c(C)c3c(OC)cccc(=O)c3c2C)cc1,/,-0.8%,5.4%,-17.5%,0.0%,-4.6%,0.5%,-1.3%
COc1ccc(C2=NNC(=O)CC2)cc1,4.8%,-6.2%,20.5%,1.1%,7.4%,?,6.1%,/
Cc1ccccc1NC(=O)Cn1c(NCC(C)O)nc2ccccc21 (centres undefined),/,-6.8%,-16.0%,-2.6%,-19.7%,2.3%,7.3%,/
O=C(COC(=O)Cn1cnc2ccccc21)NCCc1ccc(Cl)cc1,7.3%,-4.8%,22.0%,6.2%,17.8%,-0.4%,-3.4%,21.1%

# Some of the entries so far, as tab-separated lines.
molecule	MARV entry inh	NS1 function inh	RE007 growth inh	Cruzain inh Det	2A StopGo	SARS PLpro yeast	Cruzain inh noDet	Lassa entry inh
COc1ccc(-n2c(C)c3c(OC)cccc(=O)c3c2C)cc1	/	-0.8%	5.4%	-17.5%	0.0%	-4.6%	0.5%	-1.3%
COc1ccc(C2=NNC(=O)CC2)cc1	4.8%	-6.2%	20.5%	1.1%	7.4%	?	6.1%	/
Cc1ccccc1NC(=O)Cn1c(NCC(C)O)nc2ccccc21 (centres undefined)	/	-6.8%	-16.0%	-2.6%	-19.7%	2.3%	7.3%	/
O=C(COC(=O)Cn1cnc2ccccc21)NCCc1ccc(Cl)cc1	7.3%	-4.8%	22.0%	6.2%	17.8%	-0.4%	-3.4%	21.1%

# New compounds follow:
SMILES,MARV entry inh,NS1 function inh,RE007 growth inh,Cruzain inh Det,2A StopGo,SARS PLpro yeast,Cruzain inh noDet,Lassa entry inh
Cc1cccc(NC(=O)COC(=O)c2cccc3c2C(=O)c2ccccc2C3=O)c1C,-17.3%,9.5%,-9.6%,-11.6%,?,1.2%,?,?
O=C(COC(=O)C12CC3CC(CC(C3)C1)C2)Nc1nccs1,/,-5.7%,-15.1%,/,-8.5%,0.2%,/,/
COCCn1c(SCC(=O)N2CCCCCC2)nc2c(c1=O)SCC2,?,7.2%,3.9%,/,-17.5%,0.9%,/,-0.5%
CC(C)CNC(=O)Nc1cc(C(=O)NCc2ccc(C(C)C)cc2)ccc1N1CCCC1,/,/,/,-6.5%,-11.5%,/,8.9%,-27.6%[46.1 µM]
Cc1cc(-c2ccco2)n(CC(=O)NCCCc2ccccc2)n1,/,-17.4%,-0.7%,0.3%,-20.0%,2.1%,-1.0%,/
NC(=O)c1nnsc1Sc1c(C(N)=O)nnn1-c1cccc(N)c1,?,/,-8.5%,/,-21.5%,-2.8%,/,-0.4%

# High-throughput results: PubChem BioAssay, National Center for Advancing Translational Sciences (NCATS)
